VACV Venus inh: qHTS for Stage-Specific Inhibitors of Vaccinia Orthopoxvirus: Venus Reporter Primary qHTS. Vaccinia virus Venus reporter expression, fluorescence. Potency, µM (series often up to 36.5 µM), without a hit: at the highest dose activity change, negative = inhibition, actives largely listed as inhibitors. actives 0.46% (n = 330,000); active means well fitted inhibition curve with a large enough effect; inconclusive means small, poorly fitted or top-dose-only effect; inactive means no such curve, though single readings can be large or run the other way; tested in A549 cells; also: nearly all actives have a fitted effect of over 30% in size; inactives centre near -10
VACV mCherry inh: qHTS for Stage-Specific Inhibitors of Vaccinia Orthopoxvirus: mCherry Reporter Primary qHTS; Vaccinia virus mCherry reporter infection, fluorescence; about a quarter of the inactives have no number; Potency, µM (doses to about 36.5 µM), without a hit: at the top dose activity change, negative = inhibition, most hits filed as inhibitors; actives 0.63% (n = 310,000); active = well fitted inhibition curve with a large enough effect; inconclusive = small, poorly fitted or top-dose-only effect; inactive = no such curve, though single readings can be large or run the other way; tested in A549 cells; also: nearly all actives have a fitted effect of over 35% in size; inactives centre near -10
Starred values were filed as active, the others as inactive; i = inactive; ? = inconclusive; . = not tested or not shown; & = joins results of further samples; [ ] = dose if it differs, or a comment. % is scaled to controls: 0 for no effect and ±100 for the full control effect; potency is read from the fitted curve at half-maximal effect.

SMILES	VACV Venus inh	VACV mCherry inh
Cc1ccc2nc(Cl)c3cc(C(=O)N4CCCC(C)C4)sc3c2c1 (centres undefined)	-7%	-3%
COC(=O)C1=C(C(=O)OC)[C@@H]2N(C)c3ccc(OC)cc3[C@@]23C[C@@H](C(=O)OC)N(C(=O)c2cccs2)C3=N1	-24%	-18%
CCCCN(C)Cc1cc(=O)oc2cc3c(cc12)CCCC3	-6%	-2%
CCc1nn(CC(=O)NCc2ccccc2)c(=O)c2cccn12	-8%	-11%
O=C(CN1CCN(Cc2ccccc2)CC1)N=Nc1c(O)[nH]c2ccccc12	-15%	-28%
COc1cc(Nc2c3ccccc3nc3ccccc23)cc(OC)c1OC	?	?
COc1ccc(/C=C\C(=O)c2c(O)ccc3c(C)cc(=O)oc23)cc1OC	?	-7%
COc1ccc(C)cc1NC(=O)CSCc1ccccc1C	-7%	i
CCOC(=O)c1ccccc1-c1cn2cc(Cl)ccc2n1	5%	i
O=C(CCN1C(=O)COc2ccccc21)NCc1ccco1	-17%	-4%
CC(C)NC(=O)N(C)C[C@@H]1Oc2ccc(NC(=O)Nc3ccc(C(F)(F)F)cc3)cc2CC(=O)N([C@H](C)CO)C[C@@H]1C	-22%	-9%
CCOc1ccccc1CNC(=O)CCc1c(C)nn(-c2ccc(N3CCCC3)nn2)c1C	-11%	-4%
Cc1ccc(S(=O)(=O)NC(=O)C2(C)CCN2C(=O)Cc2ccc(Cl)cc2Cl)cc1 (centres undefined)	-4%	-6%
Cc1nnc(NC2(C(F)(F)F)C(=O)Nc3c2c(=O)n(C)c(=O)n3C)s1 (centres undefined)	-2%	.
Cc1ccc(OCCNC(=O)CNC(=O)c2ccc(C)c(C)c2)cc1	-21%	-15%
O=c1[nH]c(C(Cl)Cl)nc2sc3c(c12)CCN(Cc1ccccc1)C3	3%	-12%
CCn1cc(C(=O)N2CCN(c3cccc(C)c3C)CC2)c2cc(OC)c(OC)cc2c1=O	?	?
CCC(C)[C@H](NS(=O)(=O)c1ccc(C)cc1)C(=O)N1CCC(C(=O)N2CCC(C(=O)OC)CC2)CC1 (some centres undefined)	3%	-6%
CC(C)[C@@H](N)C(=O)NCC1CCC(C(=O)N[C@@H](Cc2ccccc2)C(=O)O)CC1 (some centres undefined)	-16%	-1%
C[C@@H](C(=O)NCc1ccccn1)[C@H]1C[C@]1(C)[C@H](NC(=O)OCc1ccccc1)c1ccccc1	-21%	i
O=C(COC(=O)c1n[nH]c2ccccc12)c1ccc(F)c(F)c1	-21%	-25%
O=C(C(=O)N1CCN(c2ccccc2)CC1)c1ccco1	-5%	-22%
Cc1cccc(C)c1NS(=O)(=O)c1ccc(NS(=O)(=O)c2ccc3c(c2)OCCO3)cc1	-14%	-6%
CC(=O)C[C@H]1c2cc(C(F)(F)F)ccc2S(=O)(=O)N1Cc1ccccc1	-4%&-16%	-10%
CCOC(=O)c1oc2cccc(O)c2c1CN1CCOCC1	-14%	-23%

5 structures already listed, arranged by molar mass, largest number first:
SMILES	VACV Venus inh	VACV mCherry inh
CCn1cc(C(=O)N2CCN(c3cccc(C)c3C)CC2)c2cc(OC)c(OC)cc2c1=O	?	?
O=C(CN1CCN(Cc2ccccc2)CC1)N=Nc1c(O)[nH]c2ccccc12	-15%	-28%
COc1ccc(/C=C\C(=O)c2c(O)ccc3c(C)cc(=O)oc23)cc1OC	?	-7%
COc1cc(Nc2c3ccccc3nc3ccccc23)cc(OC)c1OC	?	?
Cc1ccc(OCCNC(=O)CNC(=O)c2ccc(C)c(C)c2)cc1	-21%	-15%

Next section:
SMILES	VACV Venus inh	VACV mCherry inh
CCCNC(=O)N1CCN(S(=O)(=O)c2ccc3c(ccn3C)c2)CC1	-2%	0%
COc1ccc(Oc2nc(-c3ccccn3)ncc2OC)cc1	?	-29%
COC(=O)c1sc(NC(=O)COc2ccc(C)cc2)nc1C	-1%	-17%
COc1ccc2nc(NC(=O)c3ccc([N+](=O)[O-])o3)sc2c1	?	?
COC(=O)c1cc(OC)c(OC)cc1NC(=S)Nc1cccc(C(C)=O)c1	-4%	-11%
COCCN1C=C(C(=O)OC)C(c2ccc(Cl)cc2)C(C(=O)OC)=C1	-15%	-21%
CCCCN(CC)CCNC(=O)c1nn(-c2ccc(OC)cc2)c(=O)c2c1c1ccccc1n2C	-4%&-9%	-9%
Cc1ccc(CCNC(=O)C(NS(=O)(=O)c2ccc3c(c2)oc(=O)n3C)C(C)C)cc1 (centres undefined)	-2%	-6%
O=S(=O)(c1cccs1)N1CN(Cc2ccc(Cl)cc2)c2nc3ccccc3nc21	-18%	i
Cc1c(C2(O)CCCCC2)[nH]c2ncccc12	-14%	i
O=C(CC1CCCC1)Nc1cccc(Br)c1	14%	-5%
CCOC(=O)c1c(NC(=O)CC)sc(C(=O)NC2CCCC2)c1C	-11%	-9%
O=[N+]([O-])c1ccc(CS(=O)(=O)N2CCN(c3ccccc3)CC2)cc1	1%	-24%
O=C(COc1ccccc1F)Nc1nnc(S(=O)(=O)N2CCCCCC2)s1	-13%	-17%
CN(N)c1nc(-c2ccccc2)nnc1C(F)(F)F	?	.
O=C(c1ccco1)N1CCN(Cc2cccc3ccccc23)CC1	10%	-14%
COc1ccc2cc(C(=O)NCC(=O)O)sc(=O)c2c1OC	5%	-4%
Cc1c(C(=O)N(Cc2cccc(Cl)c2)Cc2ccco2)oc2ccccc12	-6%	-2%
COc1ccc(C[C@](C)(N)C(=O)O)cc1OC	-9%	i
Cc1ccc(C(=O)CCC(=O)Nc2cccc(C(F)(F)F)c2)cc1C	-2%	.
Cc1ccc(CNC(=O)C2CCC(=O)N(Cc3cccc(F)c3)C2)s1 (centres undefined)	-9%	-3%
Cc1ccc(SCCNC(=O)CN(c2cccc(C)c2C)S(C)(=O)=O)cc1	-10%	-12%
C=CCNc1c2c(nc3ncnn13)CC(C)CC2 (centres undefined)	-13%	-9%
COCCN(C(=O)CSc1nc2ccc(OC)cc2[nH]1)c1c(N)n(Cc2ccccc2)c(=O)[nH]c1=O	-14%	-17%
O=C(CCN1C(=O)/C(=C/c2ccccc2)SC1=S)N1CCCCCC1	5%	i

Individual results from the entries so far:
Cc1ccc(SCCNC(=O)CN(c2cccc(C)c2C)S(C)(=O)=O)cc1 in VACV Venus inh: -10%
Cc1c(C2(O)CCCCC2)[nH]c2ncccc12 in VACV Venus inh: -14%

Next entries.
SMILES	VACV Venus inh	VACV mCherry inh
COC(=O)/C=C1\SC(=NC(=O)c2ccc(C)cc2)NC1=O	?	?
CC1CCN(S(=O)(=O)c2ccc3c(c2)oc(=O)n3C)CC1	12%	-26%
CC(C)Nc1nc(-c2ccccc2)nnc1-c1ccccc1	-29%	-3%
COc1cccc(-c2ncc3ccccc3c2COC(=O)c2ccccc2C(=O)O)c1	-4%	-5%
Cc1ccccc1CCNC(=O)c1ccc2c(c1)c(C)c(C)n2C	-9%	-10%
COc1ccccc1OCCn1nnc2ccccc21	-5%	i
CCN(CC)C(=O)COc1ccc(/C(C)=N/NC(=O)c2ccccc2-n2cccc2)cc1	-17%	i
COc1ccc(NS(=O)(=O)c2cccc(C(=O)OCC(=O)Nc3cc(C)on3)c2)cc1	-12%	-6%
COc1nc(C)cc(C)c1S(=O)(=O)c1ccccc1C	-3%	-13%
COc1ccc(N2CCN(C(=O)CSc3ccccc3)CC2)cc1	-15%	-11%
CC(C)C[C@H]1CN([C@@H](Cc2ccccc2)CN2CCC[C@@H]2CN2C(=O)C(=O)NC[C@@H]2Cc2ccccc2)C(=O)C(=O)N1CCc1ccccc1	?	-26%
CN(C(=O)c1cccc(NC(=O)Cc2ccc(NC(=O)C3CCN(C(=O)C4CCCCC4)CC3)cc2)c1)C1CCCCC1	-21%	i
Cc1c(CCNC(=O)Cc2ccc(F)cc2)sc2nc(-c3ccc(F)cc3)nn12	-28%	-23%
CCc1nnc(NC(=O)CSc2nc3ccccc3s2)s1	-7%	-3%
Cc1c(C)c(C)c(/C=C/c2ccnc3ccccc23)c(C)c1C	4%	-23%
Cc1cc(C)n2c(Nc3c(C)cccc3C)c(-c3ccccn3)nc2n1	5%	?
Cn1c(NCCc2ccncc2)nc2cc(-c3ccsc3)sc2c1=O	2%	14%
COc1ccc(OC)c(NC(=O)CSc2nc(N)c(-c3ccccc3)c(=O)[nH]2)c1	11%	-13%[1.46 µM]
Cc1ccc2[nH]c(=O)c(CN(CC3CCCO3)S(=O)(=O)c3cccc4nsnc34)cc2c1 (centres undefined)	-13%	-16%
COc1ccc(N2CCN(CC(O)COc3c(OC)cccc3OC)CC2)cc1 (centres undefined)	-19%	-15%
Cc1cccc([C@@H]2[C@@H]3C(=O)N(Cc4ccccc4)C(=O)[C@@H]3[C@]3(CC(C)C)C(=O)N(c4cccc(Cl)c4)C(=O)N23)c1	-21%	i
Cc1cccn2c3c(c(=O)nc12)C(c1ccc(F)cc1)CC(=O)N3 (centres undefined)	-7%	-8%
C=C(C)c1ccccc1	-10%	-19%
Cc1ccc(S(=O)(=O)N(C)CC(=O)Oc2ccc(-c3nnco3)cc2)cc1	-9%	-15%
CCN(C(=O)CSc1nc2cc(Cl)ccc2c(=O)n1Cc1ccco1)C1CCS(=O)(=O)C1 (centres undefined)	-5%	i
Continued.
SMILES	VACV Venus inh	VACV mCherry inh
O=C(NC(=S)Nc1ncccn1)c1ccccc1Br	-9%	-25%
CC(=O)Nc1ccc(S(=O)(=O)N(C)CC(=O)OCC(=O)N(C)c2ccccc2)cc1	-11%	i
CCOC(=O)C(=O)Nc1cccc(C(=O)OCC)c1	-23%	i
O=C(c1cccc(Cl)c1)N1CCN(Cc2ccccc2F)CC1	-1%	-8%
O=C1CC(c2ccccc2)SC(N(c2ccccc2)c2ccccc2)=N1 (centres undefined)	-29%	?
CCc1ccc2[nH]c(=O)c(CN(CCCN3CCOCC3)C(=O)Nc3ccccc3)cc2c1	?	.
CCn1cc(CN2CCc3c([nH]c4ccccc34)C2c2ccc(F)c(OC)c2)c(C)n1 (centres undefined)	-14%	?
O=C(CCC(=O)OCC(=O)c1ccc(C(F)(F)F)cc1)OCC(=O)c1ccc(C(F)(F)F)cc1	-4%	-12%
O=C(CCN1C(=O)COc2ccccc21)N1CCC2(CC1)OCCO2	-2%	i
Cc1ccc(S(=O)(=O)N2[C@H](CC(=O)c3ccc(F)cc3)OC[C@@H]2C(C)C)cc1	-29%	?
CCCCCCn1c(N2CCCC2)nc2c1c(=O)n(C)c(=O)n2C	-26%	-1%
O=C(Nc1ccc(Cl)cn1)c1ccccc1[N+](=O)[O-]	-20%	-29%
Cc1ccccc1CS(=O)(=O)Cc1ccc(C(=O)N2CCC3(CC2)OCCO3)o1	-11%	-9%
CCC1(C)C(Nc2c(C)cccc2C)=NC(=S)N1c1ccc(NC(C)=O)cc1 (centres undefined)	-5%	i
Cc1ccc(N(C(C)C(=O)Nc2c(C)n(C)n(-c3ccccc3)c2=O)S(C)(=O)=O)cc1C (centres undefined)	-2%	2%
CCn1c(CNC(=O)c2ccccc2Br)nnc1SCC(=O)Nc1nncs1	0%	-19%
Cc1ccc(SCc2ccc(C(=O)Nc3nccs3)o2)cc1	-13%	i
CCC(c1nnnn1CCOC)N1CCN(Cc2ccccc2)CC1 (centres undefined)	-3%	.
Cc1ccc(S(=O)(=O)N2CCCN(S(=O)(=O)c3ccc(C(F)(F)F)cc3)CC2)cc1	?	?
CCCS(=O)(=O)NC(=O)C1(C)CCCN(C(=O)c2cccc3ccccc23)C1 (centres undefined)	-3%	i
O=C(O)c1cccc(Oc2ccc([N+](=O)[O-])cc2)c1	8%	-9%
COCCN1C(=O)C(=O)/C(=C(/O)c2cccc(OC)c2)C1c1ccc(C)o1 (centres undefined)	6%	-2%
Cc1ccc(CNC(=O)C2CC(c3ccccc3[N+](=O)[O-])=NO2)cc1 (centres undefined)	-1%	-1%
COc1ccc(C(CNC(=O)C(CCSC)NC(=O)c2ccccc2Cl)N2CCCCC2)cc1 (centres undefined)	-1%	-8%
O=C(CN1C(=O)NC2(CCOc3ccccc32)C1=O)c1ccc(F)c(F)c1 (centres undefined)	-5%	-16%

One compound at a time, from the list above. Order of screens: VACV Venus inh | VACV mCherry inh
CN(C(=O)c1cccc(NC(=O)Cc2ccc(NC(=O)C3CCN(C(=O)C4CCCCC4)CC3)cc2)c1)C1CCCCC1 is entered as -21% | i
COc1ccc(N2CCN(C(=O)CSc3ccccc3)CC2)cc1 is entered as -15% | -11%
Cc1ccc(C(=O)CCC(=O)Nc2cccc(C(F)(F)F)c2)cc1C is entered as -2% | .

Remaining list, next part
SMILES	VACV Venus inh	VACV mCherry inh
CCC1CN(C(=O)C2CCN(S(=O)(=O)c3c(C)noc3/C=C/c3ccccc3F)CC2)c2cc(C)ccc2O1 (centres undefined)	-12%[7.34 µM]	-7%[7.34 µM]
CC(=O)N1CCOc2ccc(S(=O)(=O)Nc3ccc(C)cn3)cc21	0%[7.34 µM]	i[7.34 µM]
Cc1c(N2C(=O)CSC2c2ccco2)c(=O)n(-c2ccccc2)n1C (centres undefined)	-15%	-8%
C[C@H](NC(=O)Nc1cccc(Br)c1)C(=O)O	-10%	-16%
Cc1[nH]c(C)c2c(=O)[nH]ncc12	-10%	i
COc1ccc(CNc2ncnc3c2c(-c2ccccc2)cn3-c2ccc(C)c(Cl)c2)cc1	-7%	-14%
Cc1cccc(N2CC(C(=O)Nc3ccc(S(=O)(=O)Nc4nccs4)cc3)CC2=O)c1C (centres undefined)	-1%	9%
c1cc2c3c(cccc3c1)CC2	6%	-2%
N#C/C(=C\c1ccc(OCc2ccccc2)cc1)C(=O)Nc1ccc(C(=O)O)cc1	1%	i
CC1CN(CCCCN2C(=O)c3ccccc3C2=O)CC(C)O1 (centres undefined)	-14%	i
Cc1cc(C)cc(C(=O)NC(=S)Nc2ccc(Cc3ccncc3)cc2)c1	-27%	?
